Screening data from PubChem BioAssay.
rRNA inh HTS = selective bacterial rRNA inhibition in E. coli. E. coli WT GFP vs humanized-ribosome RFP mutants, fluorescence, 24 h; active compounds read low; DMSO median 0, no signal -100. GFP signal change (wild-type ribosome), % (no concentration beside the values). hit rate 1.6% among 350,000. AID 720706;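 active means significant combined selectivity score with lowered wild-type GFP, culture density cut under 30%, mutant RFP and density less affected; inactive means any of these conditions unmet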; further: one replicate is shown; some compounds called inactive have numbers as strong as hits
B2AR ag = agonists of human beta-2 adrenergic receptor inducing internalization. P07550. Am2.2-beta2AR cells, FAP receptor internalization, flow cytometry; reference of the scale not given here. response, % (concentration not given with the values). hit rate 0.43% among 340,000. AID 504454;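 active means response above a set limit, near 3 SD of response in nonfluorescent compounds, cut at about 42% in these data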;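 further: stock transfer was 100 nL into about 11 µL; a reference agonist was the positive control; negative values mostly stem from fluorescent compounds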
Target sequence (P07550 whole entry, looked up): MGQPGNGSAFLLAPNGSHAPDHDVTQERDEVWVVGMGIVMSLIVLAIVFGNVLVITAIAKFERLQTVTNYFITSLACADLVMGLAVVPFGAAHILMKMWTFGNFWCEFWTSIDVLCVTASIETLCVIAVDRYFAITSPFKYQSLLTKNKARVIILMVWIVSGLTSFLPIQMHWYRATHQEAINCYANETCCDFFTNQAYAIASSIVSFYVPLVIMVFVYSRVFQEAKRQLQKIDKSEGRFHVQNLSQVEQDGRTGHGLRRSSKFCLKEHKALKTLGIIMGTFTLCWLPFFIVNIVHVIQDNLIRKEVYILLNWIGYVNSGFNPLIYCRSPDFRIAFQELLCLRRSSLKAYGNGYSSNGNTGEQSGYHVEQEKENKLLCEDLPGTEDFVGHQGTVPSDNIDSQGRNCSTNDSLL
HNF4A DNA FP = change in binding of human HNF4 alpha to DNA; hit rate 0.3% among 360,000; P41235; activity change, % at 10 µM; HNF4a-FITC DNA binding, fluorescence polarization, 1 h; AID 1224865; in the data active means activity change above about 30%, passing the limit was not always enough;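 further: controls were the assay level and a saturating level of protein; the project sought stronger binding though the title names inhibitors; some compounds called inactive have numbers as strong as hits; positive values seem to mean higher polarization but the record does not say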
FGF22 binding = binders of recombinant human FGF22 by thermal shift; calls only at 9.99 µM; Q9HCT0; hit rate 1.5% among 340,000; AID 651658; SYPRO orange fluorescence; percent of sucrose octasulfate shift, DMSO zero;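 active means melting point raised past a set limit in the mean and every replicate; inconclusive means no clear call; three in four hits are not shown here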
ALR inh = human ALR oxidase inhibition via reduced H2O2; P55789; purified ALR, DTT oxidation, H2O2 HRP-luminol luminescence; inhibition, % (test concentration not listed); hit rate 3.8% among 290,000; AID 485317;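 active means mean and each replicate at 75% or more; inconclusive means only one of the two met; inactive means neither met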;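 further: stock transfer was 7.5 nL into about 7.5 µL; 0% = neutral wells and 100% = wells with inactivated enzyme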
Target sequence (P55789 whole entry, looked up): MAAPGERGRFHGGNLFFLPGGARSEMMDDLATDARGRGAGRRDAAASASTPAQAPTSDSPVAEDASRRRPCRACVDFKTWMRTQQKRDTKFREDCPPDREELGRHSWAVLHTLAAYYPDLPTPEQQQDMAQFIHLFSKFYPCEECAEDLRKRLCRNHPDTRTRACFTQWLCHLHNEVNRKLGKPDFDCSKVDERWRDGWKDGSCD
UCH37 inh = human UCH37 deubiquitinating enzyme inhibition; purified proteasome/UCH37, Ub-AMC cleavage fluorescence; inhibition, % (test concentration not listed); hit rate 0.33% among 330,000; Q9Y5K5;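 active means mean of two replicates above 20%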;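 further: 0% = compound-free wells with enzyme and 100% = wells lacking proteasome; stock transfer was 100 nL into about 20 µL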
Target sequence (Q9Y5K5 whole entry, looked up): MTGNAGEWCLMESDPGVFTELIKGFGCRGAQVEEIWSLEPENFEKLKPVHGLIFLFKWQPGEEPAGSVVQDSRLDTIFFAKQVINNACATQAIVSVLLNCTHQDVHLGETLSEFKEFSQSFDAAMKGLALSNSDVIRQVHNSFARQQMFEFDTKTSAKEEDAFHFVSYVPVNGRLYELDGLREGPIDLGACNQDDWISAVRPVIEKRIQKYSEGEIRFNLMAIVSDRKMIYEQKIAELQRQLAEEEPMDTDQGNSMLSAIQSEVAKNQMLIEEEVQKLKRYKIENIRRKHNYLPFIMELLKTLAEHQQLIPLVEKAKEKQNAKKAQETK
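Schedule: 30 min plus 25 min, room temperature / Material: human UCH37 within purified proteasomes / Technique: AMC fluorescence intensity at 355/460 nm / Buffer or medium: pH 7.4 Tris-HCl (50 mM) with ovalbumin, ATP-MgCl2, DTT / Controls: wells without proteasome as full block, compound-free enzyme plus substrate as uninhibited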
Ecoli growth = inhibitors of Escherichia coli growth | hit rate 0.21% among 330,000 | OD600, 23 h; active compounds read low | OD600 absorbance (concentration not given with the values) | AID 1053175;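 active means OD600 absorbance below the run mean of sample wells minus 3.6 SD, in any replicate, cut at about 0.56 in these data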;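 further: stock transfer was 300 nL into about 60 µL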
rRNA inh HTS OD600 = further read-out of rRNA inh HTS, marked with its call; OD600 change, %; measured here: OD600 growth;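 optical density of the mix in the first replicate; 0 = DMSO median and -100 = no signal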
rRNA inh HTS RFP = also measured in rRNA inh HTS; calls as there; RFP signal change, %; measured here: RFP humanized mutant strains;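 first replicate; 0 = DMSO median and -100 = no signal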
Starred values were filed as active, the others as inactive; i = inactive; ? = inconclusive; . = no result given.

entry	SMILES	rRNA inh HTS OD600	UCH37 inh	B2AR ag	HNF4A DNA FP	FGF22 binding	rRNA inh HTS	Ecoli growth	ALR inh	rRNA inh HTS RFP
1	Cc1cc(C)c(OCC(=O)OCC(=O)NC2CCC(C)CC2)c(C)c1 (stereo unspecified)	-4.7	2.1	-0.8	-1.0	i	-3.3	0.705	-2.4	-4.3
2	Cc1ccc([N+](=O)[O-])cc1S(=O)(=O)N(C(=O)c1ccncc1)c1ccc2oc3c(c2c1)CCCC3	-2.5	2.8	11.9	2.0	i	-5.5	0.738	-0.4	-7.1
3	Cc1ccc(C(C)(C)NC(=O)C2CCC(=O)N(Cc3ccccc3F)C2)cc1 (stereo unspecified)	0.8	2.2	-4.6	0.0	i	1.2	0.729	-8.5	3.7
4	CCCC(C(=O)NCC1CCCO1)N(Cc1ccco1)C(=O)CNS(=O)(=O)c1ccc(F)cc1 (stereo unspecified)	.	0.4	1.7	-6.5	.	.	0.757	-5.9	.
5	N#CC1(NC(=O)COc2ccc(S(=O)(=O)N3CCCC3)cc2[N+](=O)[O-])CCCCC1	6.0	6.6	-3.6	2.6	i	4.3	0.68	-0.3	-1.9
6	COc1ccc(C2CC(c3ccccc3)=NN2C(=O)COC(=O)c2nc3nccc(C)n3n2)cc1 (stereo unspecified)	-10.6	5.4	-3.1	3.3	i	-17.9	0.712	-5.4	-3.4
7	O=C(CSc1nc(-c2ccccc2)ns1)NCC1CCCO1 (stereo unspecified)	2.0	1.8	0.0	-2.4	i	9.9	0.679	8.5	9.5
8	CC(C)(C)NC(=O)C(c1cccs1)N(C(=O)C(=O)NC1CCCC1)c1ccccc1F (stereo unspecified)	5.2	2.3	-7.9	-1.8	i	5.9	0.653	-3.6	0.5
9	COc1cccc(C(=O)NC2CCCc3ccccc32)c1OC (stereo unspecified)	2.8	5.2	-3.5	-2.0	i	0.8	0.694	5.4	-1.8
10	CCNC(=S)NCC	13.5	-2.6	-3.2	-3.4	i	5.2	0.683	.	-3.1
11	CC1(C(=O)NS(=O)(=O)c2ccc(Cl)s2)CCN1C(=O)Cc1ccc(Cl)cc1Cl (stereo unspecified)	-16.1	.	.	-0.2	i	-14.0	.	.	-1.7
12	COc1cc(NS(=O)(=O)c2ccc(NC(=O)COc3ccccc3C)cc2)nc(OC)n1	.	7.8	8.0	-6.9	.	.	0.71	98.8*	.
13	Cc1ccc(C(C)n2cc(C(=O)NCc3ccccn3)nn2)cc1 (stereo unspecified)	6.7	0.7	-5.8	0.9	i	5.2	0.644	-6.1	-1.6
14	COc1ccc(NC(=O)CN2C(=O)NC(C)(Cc3ccc(OC)c(OC)c3)C2=O)cc1 (stereo unspecified)	4.4	.	.	2.0	i	1.5	.	.	-3.3
15	Cc1ccc(-c2nc(NC(=O)CSc3cc(C)c4ccccc4n3)ns2)cc1	15.4	5.6	18.4	161.6*	i	10.8	0.738	2.2	1.3
16	CN(C)c1ccc(S(=O)(=O)N(C)C)cc1[N+](=O)[O-]	5.7	0.4	-1.1	1.8	i	4.7	0.701	-3.4	-1.2
17	COc1ccc(-n2nnnc2SCC(=O)c2ccc(OC)c(OC)c2)cc1	2.5	-0.7	-4.2	3.2	i	4.6	0.729	0.3	5.0
18	Clc1ccc2[nH]c(-c3ccccc3)cc2c1	.	-15.6	-8.0	-1.0	.	.	0.721	-3.2	.
19	COCCNC(=O)c1c(CSc2ccc(Cl)cc2)noc1C(=O)NCc1ccccc1	.	0.9	-5.3	-3.4	.	.	0.714	1.5	.
20	Cc1ccc(S(=O)(=O)NCCCNS(=O)(=O)c2ccc(C)cc2)cc1	-6.2	1.3	14.2	-2.2	i	-3.6	0.708	.	3.2
21	CC(=O)C1=C(O)C(=O)N(CCC(=O)O)C1c1ccccc1[N+](=O)[O-] (stereo unspecified)	3.8	6.1	-6.5	2.9	i	6.6	0.646	-2.4	4.8
22	O=C(Nc1cccc(Cl)c1)C1COc2ccccc2O1 (stereo unspecified)	0.7	3.3	3.6	2.0	i	16.8	0.697	-8.0	-0.6
23	CCN(CC)P1(=O)OC(c2cc(OC)c(OC)c(OC)c2)=Nc2c1c(C)nn2-c1ccccc1 (stereo unspecified)	.	1.6	7.4	0.3	.	.	0.718	-1.4	.
24	CC(C)(C)OC(=O)C[C@@H]1C/C=C\C[C@H](CC(=O)N(CCO)Cc2ccccc2)C(=O)N[C@@H](Cc2ccccc2)COC1=O	-7.3	3.1	4.1	-2.6	i	-8.6	.	-7.7	16.5

Random excerpt: four entries already listed, in no set order.
entry	SMILES	rRNA inh HTS OD600	UCH37 inh	B2AR ag	HNF4A DNA FP	FGF22 binding	rRNA inh HTS	Ecoli growth	ALR inh	rRNA inh HTS RFP
24	CC(C)(C)OC(=O)C[C@@H]1C/C=C\C[C@H](CC(=O)N(CCO)Cc2ccccc2)C(=O)N[C@@H](Cc2ccccc2)COC1=O	-7.3	3.1	4.1	-2.6	i	-8.6	.	-7.7	16.5
13	Cc1ccc(C(C)n2cc(C(=O)NCc3ccccn3)nn2)cc1 (stereo unspecified)	6.7	0.7	-5.8	0.9	i	5.2	0.644	-6.1	-1.6
15	Cc1ccc(-c2nc(NC(=O)CSc3cc(C)c4ccccc4n3)ns2)cc1	15.4	5.6	18.4	161.6*	i	10.8	0.738	2.2	1.3
20	Cc1ccc(S(=O)(=O)NCCCNS(=O)(=O)c2ccc(C)cc2)cc1	-6.2	1.3	14.2	-2.2	i	-3.6	0.708	.	3.2

Next part.
entry	SMILES	rRNA inh HTS OD600	UCH37 inh	B2AR ag	HNF4A DNA FP	FGF22 binding	rRNA inh HTS	Ecoli growth	ALR inh	rRNA inh HTS RFP
25	CC(C)C1C(=O)N(Cc2cn(CCC3OCCCO3)nn2)CCS(=O)(=O)N1Cc1ccc(-c2ccc(Cl)nc2)cc1 (stereo unspecified)	-7.4	.	.	0.6	i	-3.7	.	.	-0.1
26	CCN1CCOC(CC(=O)Nc2ccc([N+](=O)[O-])cc2)C1=O (stereo unspecified)	7.8	7.0	3.5	3.3	i	2.8	0.704	-5.0	-3.4
27	CCCSc1nc2sc3c(c2c(=O)[nH]1)CCN(Cc1ccccc1)C3	.	-130.6	-66.5	17.2	.	.	0.789	3.9	.
28	NC(=S)N/N=C/c1ccc(-c2cccc([N+](=O)[O-])c2)o1	.	.	9.8	1.4	.	.	.	11.6	.
29	CCCCCC(=O)NNC(=S)NC(C)=O	-12.1	0.8	7.4	0.7	i	-15.1	0.475*	62.9	0.0
30	CC(=O)OC(C(=O)NC1CCCCC1)c1ccc(C)cc1 (stereo unspecified)	.	1.1	2.6	4.6	.	.	0.712	-1.0	.
31	CC[C@H](C)C(N)c1cn(C(CCCN=C(N)N)C(=O)N2CCNCC2)nn1 (stereo partly specified)	13.5	0.7	0.0	-1.6	i	6.7	.	.	-2.8
32	COc1ccc(Sc2nc(-c3ccccn3)ncc2OC)cc1	-73.8	3.5	-8.7	0.7	i	-55.5	0.679	?	-26.8
33	Cc1cn(CC(=O)N2CCN(c3ccccn3)CC2)c(=O)[nH]c1=O	12.7	.	7.1	0.9	i	3.3	.	.	-3.4
34	COc1ccc2c(c1)O/C(=C\c1sccc1C)C2=O	.	-4.9	0.1	-0.8	.	.	0.702	.	.
35	O=C(NC1CCCC1)C(c1ccccn1)N(C(=O)c1csnn1)c1ccccc1 (stereo unspecified)	.	-0.8	8.9	-0.7	i	.	0.59	-3.1	.
36	COC(=O)c1ccc2nc(-c3cccc(N)c3)cn2c1	10.5	5.0	-8.1	2.4	.	7.7	0.686	99.2*	0.7
37	CCN(C(C)=O)c1cnc(C=NNC(N)=S)c2ccccc12	11.6	.	7.0	-0.7	i	11.3	.	.	2.7
38	CCO[C@@H]1OC(C(=O)N2CCOCC2)=C[C@H](C2CCCCC2)[C@H]1CCCO	14.2	2.4	-11.0	-4.8	i	3.9	.	-22.3	16.9
39	COc1ccc(N2CCN(C(=O)Cn3cnc4sc(C)c(S(=O)(=O)N5CCOCC5)c4c3=O)CC2)cc1	-3.1	2.6	-1.2	2.8	i	11.5	0.7	.	7.8
40	CCNC(=S)N/N=C/c1ccc(OCC(=O)Nc2ccc(OC)cc2)c(OC)c1	.	.	21.2	-1.8	.	.	.	-7.6	.
41	CC(C)OP(=O)(CCP(=O)(OC(C)C)OC(C)C)OC(C)C	4.8	4.0	3.7	-5.1	i	9.4	0.678	1.4	1.2
42	Cn1c(CN2CCCCC2)nc2cc(NC(=O)c3ccc(Cl)cc3)ccc21	.	-2.0	1.9	0.9	.	.	0.653	-1.2	.
43	CCOC(=O)N1CCN(C(=O)c2cn(C)c3ccc(S(=O)(=O)N4CCOCC4)cc3c2=O)CC1	3.7	2.5	-4.3	1.0	i	11.4	0.692	-15.6	-2.8
44	O=C(O)c1cc(-c2ccco2)nc2cc3ccccc3cc12	1.2	-316.0	-3.0	-32.2	i	-0.7	0.607	11.1	3.6
45	CCOC(=O)CC1=NN(c2ccccc2)C(=O)/C1=C\c1ccc(N(C)C)cc1	13.3	1.6	11.3	1.8	i	8.1	0.716	3.5	5.2
46	CSc1nc(NC(C)(C)C)nc(Oc2ccc(=O)[nH]n2)n1	.	1.5	-7.8	-1.4	.	.	0.662	0.4	.
47	COc1ccc(Br)c(Cn2c(C)c(C(=O)NCc3cccs3)sc2=O)c1	-32.4	.	.	0.4	i	-21.0	.	.	-21.8
48	CN(CC(=O)Nc1ccc(Cl)c(Cl)c1)C(=O)CC1OC(=O)c2ccccc21 (stereo unspecified)	-14.4	1.2	11.4	4.0	i	-11.8	0.664	-3.0	1.7
49	CSc1ccc(CNCCCSc2ncccn2)cc1	20.3	2.8	-8.8	4.8	i	20.2	0.593	-0.7	2.9
50	Cn1c(Cn2cnc([N+](=O)[O-])n2)nnc1SCC(=O)Nc1ccc(Br)cc1	-1.4	-1.1	-7.0	-5.4	i	-1.2	0.702	-151.3	-1.1
51	Cc1ccc(S(=O)(=O)N2CCCC(NC(=O)N3CCN(c4ccccc4)CC3)C2)cc1 (stereo unspecified)	.	0.8	-2.1	1.1	.	.	0.702	27.5	.
52	COc1ccc(C(=O)NCCSC2CCCCC2)cc1	.	-4.0	-9.8	4.3	.	.	0.674	-4.0	.
53	CCCCCCn1c(COc2ccccc2F)nnc1SCC(=O)NC1CCS(=O)(=O)C1 (stereo unspecified)	.	0.2	-6.2	0.1	i	.	0.647	.	.
54	Cc1ccc(S(=O)(=O)N2CCCC2)cc1C(=O)NCc1ccccn1	1.7	0.1	-7.4	1.7	i	3.5	0.696	-12.4	-2.9
55	Cc1ccc(N2C(=O)CSC2c2cccs2)cc1 (stereo unspecified)	.	2.7	-8.7	-0.5	.	.	0.71	98.9*	.

Some of the compounds tested; count on the stated rates, not on these rows.
